# Hsc70 ATP site – Hsc70 inhibitors, probe displacement, primary screen, biochemical, fluorescence polarization (AID 568). Hsc70 fluorescence polarization, probe displacement; higher % means a stronger effect; strong numbers were not always called active. Heat shock cognate 71 kDa protein (Homo sapiens). 83,000 tested, under 10 active. displacement, % at 20 µM, or IC50 in µM where a hit was titrated;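 active means displacement above 50% without optical interference and an IC50 on retest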;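 further: ATPase domain with a fluorescein-tagged ATP probe; 0% = vehicle and 100% = excess ADP; read after one hour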
# WNV protease inh – inhibitors of WNV NS2B-NS3 protease, primary screen, biochemical, fluorogenic substrate; Genome polyprotein (West Nile virus), P06935; fluorogenic substrate Ex360/Em465; hits give low values; z-score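 (tested at a level between 10 and 100 µM)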; hit rate 0.18% among 65,000; AID 577, 2007;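 active means z-score at -3 or under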;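 further: score is relative to mean and spread of the compound wells of a plate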
# Target sequence (P06935 1371-1501 limits assumed): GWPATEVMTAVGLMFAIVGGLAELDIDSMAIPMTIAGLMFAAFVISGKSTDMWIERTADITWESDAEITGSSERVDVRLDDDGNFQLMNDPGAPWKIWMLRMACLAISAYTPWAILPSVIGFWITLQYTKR
# Target sequence (P06935 1502-1679 limits assumed): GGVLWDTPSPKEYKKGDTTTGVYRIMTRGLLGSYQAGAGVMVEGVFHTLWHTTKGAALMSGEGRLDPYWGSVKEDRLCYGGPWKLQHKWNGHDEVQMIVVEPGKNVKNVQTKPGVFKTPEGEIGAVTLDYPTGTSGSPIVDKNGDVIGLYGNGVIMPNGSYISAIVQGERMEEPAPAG
# MT1-MMP promoter – inhibitors of MT1-MMP promoter transcription, cell-based, luciferase reporter, luminescence (AID 618). MT1-MMP promoter luciferase reporter cells, luminescence. calls from a first round at 10 µM; hits with a dose series show EC50 in µM. hit rate 0.62% among 87,000;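 active means over half of the reporter light lost at 10 µM or EC50 under 50 µM; inactive means the rest and hits that failed the dose series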;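 further: actives suppress MT1-MMP promoter-driven transcription so potencies describe inhibitors; HT1080 fibrosarcoma cells; overnight exposure; toxic or luciferase-blocking compounds were not removed from the actives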
# An asterisk follows results filed as active; i = inactive; · = no result given; + = active, no number.
SMILES,Hsc70 ATP site,WNV protease inh,MT1-MMP promoter
COCCOC(=O)C1=C(C)NC2=C(C(=O)CCC2)C1c1cc2c(cc1Br)OCO2 (stereo unspecified),-5.3%,0.68,i
O=S(=O)(Nc1ccc(N2CCOCC2)nn1)c1ccccc1,3.9%,0.09,i
CCOC(=O)CCCNC(=O)COc1ccccc1C#N,-1.9%,1,i
O=C(OCc1ccc2c(c1)OCO2)c1ccc(S(=O)(=O)N2CCCC2)cc1,-10%,0.37,i
O=C(Nc1cnccn1)c1cccs1,7.9%,-1.1,i
CC(Oc1ccccc1F)C(=O)Nc1ccc2ccccc2c1 (stereo unspecified),3.6%,·,i
CCOC(=O)c1c(C)oc2c1c(C=NCC1CCCO1)c(O)c1ccccc12 (stereo unspecified),9.1%,0.54,i
CCCCOC(=O)C(C)Oc1ccc(=O)n(-c2ccccc2)n1 (stereo unspecified),0.9%,-1.5,i
COc1cccc(OC)c1OCCN1CCN(C(=O)c2ccco2)CC1,1.6%,-0.27,i
OCCCc1nc2ccccc2n1CCc1ccccc1,-1.1%,-0.0014,i
Cc1ccc(-n2c(=O)cc(NCc3cccnc3)[nH]c2=O)cc1,2.6%,-0.09,i
O=C(OCC(=O)c1ccc(S(=O)(=O)N2CCCC2)cc1)C1=COCCO1,6.2%,-1.4,i
COc1cc(C)nc(Oc2ccc(=O)[nH]n2)n1,-3.0%,-0.39,i
FC(F)Oc1ccccc1NC(=S)NCc1ccco1,-3.6%,·,i
CC(C)(C)n1nnnc1C(c1cccs1)N(Cc1cccnc1)Cc1ccccc1Cl (stereo unspecified),0.5%,·,i
Cc1ccc(C)c(-n2c(N)c(C(N)=O)sc2=S)c1,-1.9%,1.3,i
CC(=O)Nc1cccc(C(=O)NC(C)c2ccc(S(N)(=O)=O)cc2)c1 (stereo unspecified),3.4%,·,i
CCn1cc(CNC(=O)C2C3CCC(C3)C2C(=O)O)cn1 (stereo unspecified),-2.0%,0.46,i
Cc1ccc2cc(CN(CCN3CCOCC3)Cc3nnnn3Cc3ccco3)c(=O)[nH]c2c1C,-7.5%,-0.16,i
CC1(c2ccccc2)NC(=O)N(CC(=O)NCCC2=CCCCC2)C1=O (stereo unspecified),-6.0%,·,i
COC(=O)C(C)Sc1ccc2nnc(-c3cccc(F)c3)n2n1 (stereo unspecified),0.4%,-0.73,i
c1ccc(-c2cnn3nnnc3n2)cc1,-3.3%,0.35,i
CCCC(=O)NCCc1cc2c(C)ccc(C)c2[nH]c1=O,-1.2%,-0.41,i
COc1ccc(-n2c(C)cc(C(=O)CSc3nn4c(=O)c(C(C)(C)C)nnc4s3)c2C)cc1,-12%,-1.1,i
CCCc1noc(-c2ccc(-c3ccccc3)cc2)n1,-1.0%,0.92,i
CCn1c(Cc2ccccc2)nnc1SCC(=O)Nc1nc2ccccc2s1,7.7%,-0.02,i
Cc1cc(C)nc(N2CCC(C(=O)NCC3CCCCC3)CC2)n1,-2.6%,0.72,i
Cc1nc(SCCC(=O)O)c2ccccc2n1,3.8%,-0.62,i
COc1ccc(C)cc1NC(=O)c1[nH]c(C)c(C(C)=O)c1C,-2.6%,-1.5,i
Cc1cc(C(=O)OCc2nc3ccccc3s2)c(C)o1,0.5%,0.38,i
Cc1cc2oc(=O)cc(CN3CCN(Cc4ccccc4)CC3)c2cc1Cl,11%,-1.8,i
CCC(=O)N1CCN(c2ccc(NC(=O)COc3ccccc3Cl)cc2)CC1,2.6%,·,i
O=C(N1CCOCC1)N1CCN(c2ccccc2)CC1,-0.7%,·,i
CCOCCn1c(CN2CCC(Cc3ccccc3)CC2)nc2c1c(=O)n(C)c(=O)n2C,-1.1%,0.81,i
O=C(CSc1nnc(Cc2ccccc2)o1)NCCc1ccccc1,-0.1%,0.14,i
Cc1ccc2[nH]c3c(c2c1)CN(C(=O)CN1CCN(c2ccccn2)CC1)CC3,13%,0.83,i
Cc1nnc(SCc2nnc(-c3ccccc3Br)o2)n1-c1ccccc1,-2.8%,-0.35,i
Cc1cccc(OCCNC(=O)c2ncn[nH]2)c1,-4.3%,-0.56,i
CCC(NC(=O)C1CCC1)c1ccc(C)cc1 (stereo unspecified),1.7%,·,i
COc1ccc(C(=O)Nc2ccc(S(=O)(=O)NC(C)C)cc2)cc1,-5.5%,·,i
O=C(CSc1nnc(C2CC2)n1-c1ccccc1)NCCc1ccc(F)cc1,1.7%,·,i
O=C(C1CCCN(S(=O)(=O)c2cccc3nsnc23)C1)N1CCc2ccccc21 (stereo unspecified),1.6%,1,i
O=C(Cn1nnc(-c2ccc(CN3CCOCC3)cc2)n1)N1CCCc2ccccc21,-5.9%,0.89,i
Cc1c(N2C(=O)c3ccc(F)cc3C2=O)c(=O)n(-c2ccccc2)n1C,4.9%,·,i
COc1ccc(C(=O)Nc2c(Cl)cc(Cl)cc2C(=O)NCCN2CCOCC2)cc1,-0.2%,·,i

# Given as labelled records: 4 of the compounds above
> COc1ccc(C(=O)Nc2c(Cl)cc(Cl)cc2C(=O)NCCN2CCOCC2)cc1
  Hsc70 ATP site: -0.2%; WNV protease inh: ·; MT1-MMP promoter: i
> CCOC(=O)CCCNC(=O)COc1ccccc1C#N
  Hsc70 ATP site: -1.9%; WNV protease inh: 1; MT1-MMP promoter: i
> O=C(Nc1cnccn1)c1cccs1
  Hsc70 ATP site: 7.9%; WNV protease inh: -1.1; MT1-MMP promoter: i
> CCCC(=O)NCCc1cc2c(C)ccc(C)c2[nH]c1=O
  Hsc70 ATP site: -1.2%; WNV protease inh: -0.41; MT1-MMP promoter: i

# Next entries follow.
SMILES,Hsc70 ATP site,WNV protease inh,MT1-MMP promoter
COC(=O)c1c(NC(=O)c2ccccc2)sc2c1CC(C)(C)OC2,-3.4%,·,i
O=C(Nc1nnc(-c2ccc(Cl)cc2)o1)C1CCCCC1,-0.3%,-0.97,i
CCOc1ccc(-c2nnc3sc(-c4c(OC)cccc4OC)nn23)cc1,-0.3%,0.26,i
O=C1c2ccccc2C(=O)N1CCn1c(=O)oc2ccccc21,-8.6%,-0.78,i
CCOC(=O)C1=Nc2ccccc2C1=[N+]=[N-],-1.8%,-0.33,i
Cc1ccc(S(=O)(=O)NCCNC(=O)c2ccccc2)cc1,1.6%,-0.55,i
Cc1cc(C)nc(N(C#N)CCOc2ccccc2)n1,-27%,0.95,i
CCOC(=O)CNC(=O)c1ccc2[nH]c3c(c2c1)CCCC3,2.2%,-0.58,i
CCOC(=O)C1CCCN(C(=O)Nc2cccc(Cl)c2)C1 (stereo unspecified),-2.9%,1.7,i
Cc1ccccc1NC(=O)C1CCCN(S(=O)(=O)c2cccc3cccnc23)C1 (stereo unspecified),2.2%,-0.28,i
CCCCP(=O)(CCCC)Cc1ccccc1,5.2%,·,i
COc1nc(N(C)S(=O)(=O)c2ccc(C)cc2)nc(C)c1Cl,2.2%,-0.64,i
COC(=O)c1c(NC(=O)C2CCC2)sc(C(=O)N(C)C)c1C,14%,0.13,i
COCCCn1c(SCC(=O)Nc2ccc(C(=O)OC)cc2)nc2ccccc2c1=O,-1.2%,0.58,i
Cc1nn(-c2ccccc2)c(C)c1NS(=O)(=O)c1ccccc1,-1.0%,-0.86,i

# Structures from the list above with an aryl thioether with sulfur outside any ring (eight):
SMILES,Hsc70 ATP site,WNV protease inh,MT1-MMP promoter
COC(=O)C(C)Sc1ccc2nnc(-c3cccc(F)c3)n2n1 (stereo unspecified),0.4%,-0.73,i
COc1ccc(-n2c(C)cc(C(=O)CSc3nn4c(=O)c(C(C)(C)C)nnc4s3)c2C)cc1,-12%,-1.1,i
CCn1c(Cc2ccccc2)nnc1SCC(=O)Nc1nc2ccccc2s1,7.7%,-0.02,i
Cc1nc(SCCC(=O)O)c2ccccc2n1,3.8%,-0.62,i
O=C(CSc1nnc(Cc2ccccc2)o1)NCCc1ccccc1,-0.1%,0.14,i
Cc1nnc(SCc2nnc(-c3ccccc3Br)o2)n1-c1ccccc1,-2.8%,-0.35,i
O=C(CSc1nnc(C2CC2)n1-c1ccccc1)NCCc1ccc(F)cc1,1.7%,·,i
COCCCn1c(SCC(=O)Nc2ccc(C(=O)OC)cc2)nc2ccccc2c1=O,-1.2%,0.58,i

# Further compounds:
SMILES,Hsc70 ATP site,WNV protease inh,MT1-MMP promoter
COc1ccccc1-n1c(-c2cccnc2)n[nH]c1=S,-1.5%,0.07,i
CCOc1ccc(C(=O)NC2CCN(S(=O)(=O)CC)CC2)cc1,-1.2%,-0.86,i
Cc1ccc(OCCNS(=O)(=O)c2cccs2)cc1,-24%,-0.42,i
c1ccc(Cn2nnnc2CN2CCCC2)cc1,2.6%,0.34,i
COc1ccc(C(=O)Nc2cccc(C)c2)cc1S(=O)(=O)N1CCOCC1,1.7%,-0.72,i
COc1ccc(CC(=O)Nc2ccc(-c3nnc(-c4ccc(C)cc4)o3)cc2)cc1,-1.9%,0.17,i
Cc1ccc(NC2=NCC(=O)N2Cc2ccccc2)c(C)c1,-3.3%,·,i
O=C(COC(=O)CN1C(=O)c2ccccc2C1=O)Nc1ncc(Cl)cc1Cl,5.7%,-0.91,i
CC(C)(C)NC(=O)C(c1ccco1)N(C(=O)c1csnn1)c1ccccc1 (stereo unspecified),-1.6%,-0.68,i
COc1cc(C2Nc3ccc4ncccc4c3C3=C2C(=O)CC(C)(C)C3)cc(OC)c1O (stereo unspecified),4.0%,·,i
C=CCN1C(=O)C(O)(CC(=O)c2ccccc2)c2ccccc21 (stereo unspecified),-8.3%,-0.57,i
COc1ccc(-c2nc(C#N)c(NCc3ccc(F)cc3)o2)cc1OC,3.1%,-0.68,i
COc1ccc(Br)cc1C1NC(=O)c2c(sc3c2CCN(C)C3)N1 (stereo unspecified),-3.7%,0.49,i
O=S(=O)(c1ccc(Cl)cc1)N1CCSC1c1ccco1 (stereo unspecified),-3.6%,0.72,i
CCOC(=O)c1cccc(NC(=O)C2CCCN2S(=O)(=O)c2cccc3cccnc23)c1 (stereo unspecified),3.5%,-1.3,i
Cn1cccc1Cc1nnc(SCC(=O)N2CCCCCC2)n1CCc1ccccc1,1.2%,-0.98,i
CC12CCC(C(=O)N3CCN(Cc4ccccc4)CC3)(OC1=O)C2(C)C (stereo unspecified),-5.2%,0.26,i
CN1CCN(C2=Cc3ccc(Cl)cc3Sc3ccc(F)cc32)CC1,-3.2%,·,i
O=C1CCCc2c1sc1nc3n(c(=O)c21)CCCCC3,-0.3%,·,i
O=C(NCc1ccco1)c1cnccn1,11%,-1.1,i
CCCCCSc1nnc2c(n1)OC(c1cccn1C)N(C(C)=O)c1ccccc1-2 (stereo unspecified),4.1%,-0.57,i
CCN(Cc1ccccc1)C(=O)CCCOc1ccccc1,4.8%,-0.72,i
S=c1[nH]nc(-c2cc3ccccc3o2)n1Cc1ccccc1,0.4%,·,i
Cc1ccc(-n2c(SCC(=O)NCc3ccco3)nc3sc(C)c(C)c3c2=O)cc1,-10%,-0.42,i
Nc1nnc(SCCOc2ccccc2)s1,2.9%,-0.11,i
CCN(CCCCN1C(=O)c2ccccc2C1=O)c1ccc2c(c1)C(=O)N(C)C2=O,-11%,1.4,i
CC1(CC(=O)O)SC(=O)NC1=O (stereo unspecified),4.0%,0.95,i
CCCC(=O)N1CCN(C2=NS(=O)(=O)c3ccccc32)CC1,4.3%,-0.63,i
Cc1ccc2c(c1)-c1cc(C)nn1C(c1sccc1C)N2 (stereo unspecified),0.7%,-0.47,i
Cc1cccc(-c2nnc(SCc3ccc(C#N)cc3)n2Cc2ccco2)c1,5.5%,·,i
COC(=O)C1=C(C)NC(=O)CC1c1cccc(Cl)c1Cl (stereo unspecified),3.0%,1.6,i
CN1CCN(C(=O)c2c(NC(=O)c3ccco3)sc3c2CCC(C(C)(C)C)C3)CC1 (stereo unspecified),2.5%,-0.88,i
CN(Cc1ccccc1)S(=O)(=O)c1ccc(OCC(=O)N2CCOCC2)cc1,-1.7%,·,i
COc1ccc(S(=O)(=O)NC2CCCC2)c(Cl)c1Cl,4.7%,·,i
S=C1N(c2ccccc2)C(c2ccc(Cl)cc2)N2CCCN12 (stereo unspecified),2.3%,·,i
CC12CN3CC(=O)N4CC5(C)CN(CC(C)(C4)C5=O)C(=O)CN(C1)CC(C)(C3)C2=O,-17%,-1.9,i
CCC(C)NC(=O)c1cn(CC)c2ccc(S(=O)(=O)N(C)C)cc2c1=O (stereo unspecified),2.3%,-0.19,i
Cc1cc(=O)[nH]c(SCC2(O)C3CC4CC(C3)CC2C4)n1 (stereo unspecified),-13%,-0.48,i
COc1ccc2nc(CC(C)(C)CC(=O)O)c[n+]([O-])c2c1,1.6%,0.32,i
CN(Cc1cccs1)C(=O)CCc1ccc(S(=O)(=O)N2CCOCC2)cc1,2.7%,0.72,i
CCN(CC)C(=O)CSc1nc2ccccc2c(=O)[nH]1,20%,0.24,i
CCCCCn1c(NCc2ccco2)nc2ccccc21,6.9%,1.6,i
COc1ccc(Cl)cc1NC(=O)CSc1nc(N2CCCCC2)nc(N2CCCCC2)n1,0.3%,-0.57,i
Cc1c(C(=O)Nc2ccc3oc(-c4cccnc4)nc3c2)oc2ccccc12,-11%,-1.2,i
c1ccc(-c2ccc(-c3cn4c(n3)CCC4)cc2)cc1,0.7%,·,i
CS(=O)(=O)c1ccc2nc(NC(=O)c3cccs3)sc2c1,-5.5%,-1.9,+
CCN(CC)C(=O)c1sc(NC(=O)c2ccco2)c(C#N)c1C,-4.5%,-1.2,i

# High-throughput results: PubChem BioAssay, several laboratories

# Outcome played no part in choosing rows; about 0.77% have a hit in one of these screens.
